# 2A Renilla = Primary qHTS Assay for Foot and Mouth Disease Virus Antivirals against NCGC Sytravon and CBC Compound Libraries: Renilla Luciferase Signal. HEK cells with a luciferase reporter of 2A StopGo recoding. Potency, µM (titrated, usually from 57.5 µM), for the others: at the top dose signal change, negative = less light. actives 0.32% (n = 120,000). AID 1745857, 2022; active means well fitted falling curve with a large enough effect; inconclusive means small, poorly fitted or top-dose-only effect; inactive means no such curve, though single readings can be large or run the other way; also: nearly all actives have a fitted effect of over 55% in size; overnight with compound
# 2A firefly = Primary qHTS Assay for Foot and Mouth Disease Virus Antivirals against NCGC Sytravon and CBC Compound Libraries: Firefly Luciferase Signal | actives 0.23% (n = 120,000) | AID 1745856, 2022 | HEK cells with a luciferase reporter of 2A StopGo recoding | Potency, µM (series often up to 57.5 µM), inactives show top-dose signal change, negative = less light; active = well fitted falling curve with a large enough effect; inconclusive = small, poorly fitted or top-dose-only effect; inactive = no such curve, though single readings can be large or run the other way; also: nearly all actives have a fitted effect of over 60% in size; overnight with compound
# * = called active by the depositor; ? = inconclusive; & = joins results of further samples; [ ] = dose if it differs, or a comment. % is scaled to controls: 0 for no effect and ±100 for the full control effect; potency is read from the fitted curve at half-maximal effect. These rows are one share of the data; count on the stated rates, not on these rows.
# Start of the data: the first 2 compounds (preview)
SMILES,2A Renilla,2A firefly
FC(F)C(F)(F)Sc1nc2ccccc2[nH]1,-7%,49%[activator]
Cc1cccc(NC(=O)NC2COc3ccccc3C2)c1C (stereo not given),-18%,0%

# Results, previewed entries included:
SMILES,2A Renilla,2A firefly
FC(F)C(F)(F)Sc1nc2ccccc2[nH]1,-7%,49%[activator]
Cc1cccc(NC(=O)NC2COc3ccccc3C2)c1C (stereo not given),-18%,0%
O=S1(=O)c2ccc(Br)cc2OC[C@@H](c2ccccc2)N1Cc1cn(Cc2ccccc2)nn1,79%[activator],6%
Cc1cccc(C(=O)N2CCC(N3CCN(Cc4ccc(F)cc4)C(=O)C3=O)CC2)c1,83%[activator],131%[activator]
CC(=O)Nc1ccc(NC(=O)C2(c3cccs3)CCOCC2)cc1,-12%,-11%
Cc1ccc(Cl)cc1N1CCN(CCNC(=O)Nc2ccccc2Cl)CC1,-10%,-22%
CCn1c(=O)n(CC)c2cc(N3CCCC3)c(NC(=O)Nc3cccc(SC)c3)cc21,16%,22%
CC(Oc1ccc(F)cc1)C(=O)Nc1ccc(-c2nc3ccccc3o2)cc1 (stereo not given),5%,66%[activator]
CCOc1ccccc1Oc1c(C)oc2cc(OC(=O)C(C)C)ccc2c1=O,11%,15%
CCN(CC)S(=O)(=O)c1ccc(NS(=O)(=O)c2ccc(C)cc2)cc1,159%[activator],?
COc1ccc(-c2nc(CSc3nc(C)c(C)c(=O)[nH]3)c(C)o2)c(OC)c1,45%[activator],49%[activator]
COc1ccc(NC(=O)c2cnc(Nc3ccc(C)c(Cl)c3)c3ccccc23)c(OC)c1,-5%&-10%,0%&-11%
Cc1ccc(-c2nc3n(n2)C(CC(=O)Nc2ccc(C(C)C)cc2)C(=O)N3)cc1 (stereo not given),0%,2%
CCOc1ccc(S(=O)(=O)Nc2ccc(C)cc2)cc1-c1nc2c(C(C)(C)C)nn(C)c2c(=O)[nH]1,220%[activator],-5%
COc1ccc(NC(=O)c2oc3c(c2C)-c2nn(Cc4c(F)cccc4Cl)cc2CC3)c(OC)c1,-11%,-24%
Cc1ccc(NC(=O)COC(=O)CCSc2ccc(F)cc2)c(Br)c1,2%,48%[activator]
Cc1ccc(NC(=O)C2CCCCC2)cc1Cl,30%,135%[activator]
O=C(O)c1ccccc1C(=O)Nc1ccc(Br)c2cccnc12,2%,8%
Cc1cc(Br)cc(C)c1OCC(=O)Nc1ccc(S(=O)(=O)Nc2ncccn2)cc1,-11%,-18%
COc1cc(Cl)c(C)cc1NC(=O)c1sc2nc3n(c(=O)c2c1C)CCCCC3,4%,-16%
Cn1c(=O)c2c(nc(NCc3ccccc3)n2Cc2cccc(F)c2)n(C)c1=O,-13%,-10%
CCc1ccc(-n2c(SCc3ccccc3F)nc3[nH]ncc3c2=O)cc1,-11%,-21%
CCOC(=O)c1ccc(N2CCN(C(C)=O)CC2)c(NC(=O)c2ccc(OC)cc2)c1,122%[activator],0%
COc1cc(NC(=O)c2c(C)oc3ncnc(N4CCCCC4)c23)cc(OC)c1,?,4%
COC(=O)C1CN(Cc2cn(Cc3ccc(C)cc3)nn2)CCS(=O)(=O)N1Cc1ccc(Cl)cc1 (stereo not given),-20%,?
COc1cccc(Cn2c(=O)n(Cc3ccco3)c(=O)c3oc4ccccc4c32)c1,-4%,-9%
O=C(CSc1nc2c(c(=O)[nH]1)CCC2)Nc1cc(C(F)(F)F)ccc1Cl,-10%,-5%
Cn1c(C(=O)NCCNC(=O)c2ccc(F)cc2)cc2ccccc21,-1%,4%
Cc1cccc(C)c1OCCCN,-6%,-4%
COc1ccc(CNC(=O)CN(c2cccc(Cl)c2Cl)S(=O)(=O)c2ccccc2)cc1,36%[activator],?

# One compound at a time (already shown). Order of screens: 2A Renilla	2A firefly
# CCOc1ccccc1Oc1c(C)oc2cc(OC(=O)C(C)C)ccc2c1=O as listed: 11%	15%
# COc1cccc(Cn2c(=O)n(Cc3ccco3)c(=O)c3oc4ccccc4c32)c1 as listed: -4%	-9%
# Cc1cc(Br)cc(C)c1OCC(=O)Nc1ccc(S(=O)(=O)Nc2ncccn2)cc1 as listed: -11%	-18%

# Sorted by count of non-hydrogen atoms (ascending): five of the compounds above
SMILES,2A Renilla,2A firefly
Cc1ccc(NC(=O)C2CCCCC2)cc1Cl,30%,135%[activator]
CCOc1ccccc1Oc1c(C)oc2cc(OC(=O)C(C)C)ccc2c1=O,11%,15%
COc1cc(Cl)c(C)cc1NC(=O)c1sc2nc3n(c(=O)c2c1C)CCCCC3,4%,-16%
COc1cccc(Cn2c(=O)n(Cc3ccco3)c(=O)c3oc4ccccc4c32)c1,-4%,-9%
CCn1c(=O)n(CC)c2cc(N3CCCC3)c(NC(=O)Nc3cccc(SC)c3)cc21,16%,22%

# Other compounds:
SMILES,2A Renilla,2A firefly
Cc1ccc(CNCc2ccc(-c3cccc(C(=O)O)c3)o2)cc1,50%[activator],96%[activator]
CCn1c(C)c(/C=C/c2cc[n+](C)cc2)c2cc(C)ccc21,?,?
Cc1cc(NC(=O)NCC(c2ccc(C)o2)N2CCOCC2)no1 (stereo not given),4%,13%
Cc1ccc(NC(=O)CSc2nc3ccc(NC(=O)COc4ccc(C)cc4)cc3s2)cc1,-16%,-14%
Cc1csc(/C(C#N)=C\C2=Cc3cc(Cl)ccc3OC2)n1,-4%,-4%
COc1ccc(-c2c(C)nn3c4c(cnc23)C(=O)CC(c2ccc(C)cc2)C4)cc1 (stereo not given),-5%,2%
Cn1cnnc1C1CCCN(S(=O)(=O)N2CCCCCC2)C1 (stereo not given),-5%,-2%
O=C(/C=C/c1ccc(-c2ccccc2Cl)o1)c1ccccc1,0%,119%[activator]
Cc1oc(C)c(C(=O)Nc2ccccc2O)c1C,2%,0%
COc1ccc(Cn2c(=O)c3ccccc3n3c(-c4cccc(OC)c4OC)nnc23)cc1,?,?
O=C(Nc1ccc(F)cc1Cl)n1ncc2cc(Cl)ccc21,-5%,24%
CCOc1ccc(-c2nnc(SCC(=O)NCc3ccccc3Cl)o2)cc1,-6%,58%[activator]
CCc1c(C)sc(NC(=O)c2ccc(Cl)cc2)c1C#N,17%,72%[activator]
Cc1cc(-n2c(=O)c3sccc3n(CC(=O)NC3CCCCC3)c2=O)ccc1F,46%[activator],82%[activator]
CC(SCc1ccc(Br)cc1)C(=O)O (stereo not given),5%,10%
CCCn1c(SCC(=O)c2cc(C)n(C)c2C)nc2cc(S(N)(=O)=O)ccc21,1%,0%
CC(=O)N(C)c1ccc(NC(=O)/C(C)=C\c2ccccc2)cc1,6%[1.06 µM],210%[activator]
COCCn1cnc2c1c(=O)n(CC(=O)Nc1ccc(F)c(F)c1F)c(=O)n2Cc1ccccc1,0%,1%
CCOc1ccc(NC(=O)COC(=O)COc2ccc(C3SCCCS3)cc2)cc1OCC,-4%,7%
CCCSc1ncc(Cl)c(C(=O)Nc2sc3c(c2C(=O)OC)CCCC3)n1,-5%,19%
Cc1ccc(-n2nc(C)c3c(C)cc(=O)n(CC(=O)Nc4ccc(Br)cc4F)c32)cc1,-8%,-12%
O=C(Nc1ccc2[nH]ccc2c1)c1csc(NC2CC2)n1,20%,242%[activator]
COc1ccccc1NC(=O)CSC1=Nc2ccccc2C2=NC(CC(=O)NCCc3ccccc3)C(=O)N12 (stereo not given),5%,-16%
CCN1CCc2nc3sc(C(=O)Nc4ccccc4OC(F)(F)F)c(N)c3cc2C1,-10%,-1%
Cc1ccc(Cn2c(C)c3cnn(CC(=O)O)c(=O)c3c2C)cc1,-6%,0%
O=c1cc(-c2ccccc2)nc(SCc2nc(-c3ccc(C(F)(F)F)cc3)no2)[nH]1,-4%,-8%
Cc1nc2ccccc2c(C)c1CC(=O)N(Cc1ccco1)Cc1ccco1,-7%,-9%
O=C(Nc1ccc(F)cc1F)c1ccc(-c2ccccc2)s1,13%,194%[activator]
COCC(=O)N(c1ccc(OC)cc1OC)C1C=CS(=O)(=O)C1 (stereo not given),-4%,13%
CCCn1c(SCC(N)=O)nc2c1c(=O)[nH]c(=O)n2C,-2%,0%
COc1cc2c(cc1OC)C(COc1ccccc1OC)N(C(=O)COc1ccc(Cl)cc1)CC2 (stereo not given),-27%,?
CC1Cc2cc(S(=O)(=O)NCCc3ccccc3)ccc2N1C(=O)C1CCC1 (stereo not given),261%[activator],37%[activator]
O=C(Cn1c(=O)oc2cc(Cl)ccc21)Nc1cccc(C(F)(F)F)c1,?,?
CCC(C(=O)Nc1cc(Cl)ccc1OC)n1nc(-c2ccccc2)ccc1=O (stereo not given),9%,-5%
CCOCCc1nn2c(=O)cc(COC(=O)c3ccc(NC(=O)c4ccc(F)cc4)cc3)nc2s1,?,-10%
CC(NC(=O)C1CC1)c1cccnc1 (stereo not given),-8%,6%
COc1ccc(NC(=O)c2sc3nc4c(cc3c2N)CN(Cc2ccccc2)CC4)c(OC)c1,?,?
Cc1cc(/C=C/C(=O)c2cccc(Br)c2)cc(C)c1O,34%[activator],0%
Cc1nc2cc(NC(C)C(=O)Nc3cc(Cl)ccc3Cl)ccc2o1 (stereo not given),75%[activator],0%
Cc1ccc(-c2csc(Nc3ccccc3)n2)cc1,14%,221%[activator]
Cn1c(=O)c2[nH]c(N3CCN(C(=O)CN4CCN(c5ccccc5)CC4)CC3)nc2n(C)c1=O,7%,29%
O=C(NCCc1ccccc1)c1c[nH]c2ccc(S(=O)(=O)Nc3ccc(F)cc3F)cc2c1=O,192%[activator],4%
CCOc1ccccc1C(=O)Nc1ccc(S(=O)(=O)Nc2onc(C)c2C)cc1,44%[activator],27%
CC(=O)Nc1cc(NCC(=O)NC2(C#N)CCCCC2)ccc1F,-4%,-2%
Cc1cc2oc(=O)cc(Cn3cc(S(=O)(=O)N4CCCC4)ccc3=O)c2cc1C,-3%,8%
O=Cc1ccc(Oc2ccc([N+](=O)[O-])cc2C(F)(F)F)cc1,2%,0%
Cc1ccc(NC(=O)CSc2nc(-c3cccs3)cc(C(F)(F)F)n2)cc1C,-14%,-11%
CN1/C(=C\C(=O)CN2CCN(C(c3ccccc3)c3ccccc3)CC2)C(C)(C)c2ccccc21,14%,8%
COc1ccc(/C=C(\C#N)c2nc(-c3ccc(Cl)c(Cl)c3)cs2)cc1OC,9%,5%
CCOc1ccccc1NC(=O)C1CCN(c2nc3ccccc3o2)CC1,-3%,26%
CSc1ccccc1NC(=O)CSc1cc(C)c2ccccc2n1,5%,-3%
Cc1ccc(NC(=O)Nc2ccc3nc(N4CCOCC4)cc(C)c3c2)cc1,0%,0%
CCCn1c(N)c(N(CCOC)C(=O)c2cccnc2OCC)c(=O)[nH]c1=O,5%,13%
Cc1nc2cc(NC(C)C(=O)Nc3ccccc3C(F)(F)F)ccc2o1 (stereo not given),34%[activator],19%
CCOC(=O)C1CCN(C(=O)c2cnn(-c3ccc(F)cc3)c2-n2cccc2)CC1,-5%,9%
CCn1cc2nc(SCc3ccccc3Cl)n(CCc3ccccc3)c(=O)c2n1,0%,0%
CCC(CO)NS(=O)(=O)c1ccc(Cl)c(C)c1Cl (stereo not given),27%,-3%
Cc1ccc(/C=C/C(=O)OC(C)C(=O)C23CC4CC(CC(C4)C2)C3)o1 (stereo not given),-11%,61%[activator]
COc1ccccc1/C=C/c1nc(C#N)c(N(C)Cc2ccccc2)o1,6%,17%
O=C(Cc1ccccc1)Nc1nnc2n1CCS2,13%,8%

# Copied from the list:
# Result for `COc1ccc(/C=C(\C#N)c2nc(-c3ccc(Cl)c(Cl)c3)cs2)cc1OC` in 2A Renilla: 9%
# Result for `CCCn1c(N)c(N(CCOC)C(=O)c2cccnc2OCC)c(=O)[nH]c1=O` in 2A Renilla: 5%
# Result for `O=C(Cc1ccccc1)Nc1nnc2n1CCS2` in 2A Renilla: 13%
# Result for `Cc1nc2cc(NC(C)C(=O)Nc3ccccc3C(F)(F)F)ccc2o1` (stereo not given) in 2A firefly: 19%
# Result for `CCOC(=O)C1CCN(C(=O)c2cnn(-c3ccc(F)cc3)c2-n2cccc2)CC1` in 2A Renilla: -5%

# Further structures.
SMILES,2A Renilla,2A firefly
CC(C)NC(=O)c1nc(-c2ccc(COc3ccc4c(c3)OCO4)cc2)no1,-2%,61%[activator]
C=CCNc1nc(-c2c(N)n(CCC)c(=O)n(C)c2=O)cs1,10%,-6%
Cc1ccc(C)c(NC(=O)CSc2ncnc3ccccc23)c1,-18%,-1%
C=CCn1cnnc1SCc1cc(=O)oc2cc(C)c(C(C)C)cc12,9%,-2%
O=C(Cn1c(=O)n(CCCS(=O)(=O)C2CCCCC2)c(=O)c2ccccc21)Nc1ccccc1F,-6%,-6%
O=C(C1CCC(CNS(=O)(=O)c2ccc(Br)s2)CC1)N1CCN(c2ccccc2Cl)CC1 (stereo not given),-1%,-6%
CCSc1nc2c(c(=O)n(C)c(=O)n2C)n1Cc1ccccc1Cl,-8%,-6%
Cc1nnc(N2CCN(c3ccccc3)CC2)c2c1nnn2Cc1ccccc1Cl,-15%,6%
CCOC(=O)c1ccccc1NC(=O)Nc1cc2c(cc1N1CCCCC1)n(C)c(=O)n2C,-7%,-4%
Cc1cc(NC(=O)C(C)N(c2ccccc2)S(C)(=O)=O)ccc1Br (stereo not given),37%,3%
CCCCn1nc(C(=O)Nc2ccccc2)c2ccccc2c1=O,18%,51%[activator]
CCCCCNCc1ccccc1F,-1%,6%
CCOc1ccc(-c2cc(CCCC(=O)NCCc3ccc(OCC)c(OCC)c3)no2)cc1,-4%,?

# Screening results: PubChem BioAssay, National Center for Advancing Translational Sciences (NCATS)
